PV pol inh: inhibitors of poliovirus RNA polymerase binding and polymerization. poliovirus polymerase elongation, fluorescence polarization; hits give low values. actives 0.66% (n = 150,000). % elongation, % (compound at 16.7 µg/mL); in the data active = % elongation below about 90%; also: some results filed as inactive read as strong as hits
Target sequence (P03300 1749-2209 limits assumed): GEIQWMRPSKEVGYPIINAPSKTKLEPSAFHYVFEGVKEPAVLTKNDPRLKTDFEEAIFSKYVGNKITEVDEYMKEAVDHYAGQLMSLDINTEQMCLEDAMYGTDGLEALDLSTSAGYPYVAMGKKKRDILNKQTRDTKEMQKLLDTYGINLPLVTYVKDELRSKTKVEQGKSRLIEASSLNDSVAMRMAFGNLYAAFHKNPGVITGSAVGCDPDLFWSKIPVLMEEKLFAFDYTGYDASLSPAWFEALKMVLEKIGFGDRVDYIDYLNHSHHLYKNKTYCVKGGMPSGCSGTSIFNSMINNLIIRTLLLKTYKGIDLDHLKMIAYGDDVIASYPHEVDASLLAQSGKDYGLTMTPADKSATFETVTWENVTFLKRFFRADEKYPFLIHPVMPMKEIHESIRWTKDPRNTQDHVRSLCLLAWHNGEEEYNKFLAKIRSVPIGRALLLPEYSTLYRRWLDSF
PV pol inh intensity: recorded beside PV pol inh, whose call it bears; % elongation; measured here: total intensity read-out; formula for this scale not given here;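 total fluorescence in place of polarization; lower means less elongation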
An asterisk follows results filed as active. A portion of the library; count on the stated rates, not on these rows.

A first look:
Molecule,PV pol inh,PV pol inh intensity
CCOC(=O)c1c(NC(=O)/C=C/c2ccc(OCC)cc2)sc2c1CCCC2,107,110
CCOc1ccc(NC(=O)CCc2c(C)nc3cc(-c4ccc(Cl)cc4)nn3c2C)cc1,103,103
COc1ccc(Nc2nc3ccccc3nc2NS(=O)(=O)c2ccc(Cl)cc2)cc1OC,108,112
COc1ccc(-c2nc(CNC(=O)Nc3ccccc3)c(C)o2)cc1,110,108

All compounds of this part (from the top)
Molecule,PV pol inh,PV pol inh intensity
CCOC(=O)c1c(NC(=O)/C=C/c2ccc(OCC)cc2)sc2c1CCCC2,107,110
CCOc1ccc(NC(=O)CCc2c(C)nc3cc(-c4ccc(Cl)cc4)nn3c2C)cc1,103,103
COc1ccc(Nc2nc3ccccc3nc2NS(=O)(=O)c2ccc(Cl)cc2)cc1OC,108,112
COc1ccc(-c2nc(CNC(=O)Nc3ccccc3)c(C)o2)cc1,110,108
COc1ccc(S(=O)(=O)NCCc2cn3ccsc3n2)cc1OC,107,107
CC1=C(C(=O)Nc2cccnc2)C(c2ccccc2)n2nc(SCc3ccccc3Cl)nc2N1 (centres undefined),100,98
CCOc1ccc(-c2nonc2NC(=O)c2ccco2)cc1OCC,103,105
CCOC(=O)c1c(N)n(-c2ccccc2CC)c2nc3ccccc3nc12,109,112
CCc1cccc(NC(=O)c2ccc(NC(=O)N3CCSc4ncccc43)cc2)c1,112,104
CC(C)OCCCN(Cc1ccco1)C(=O)c1cc2c(s1)-c1ccccc1OC2,106,106
CCCN(C(=O)CCNC(=O)Cn1cnc2ccccc2c1=O)c1cccc(C)c1,110,110
Cc1ccc(C)c(CN2C(=O)c3ccccc3S(=O)(=O)c3ccc(C(=O)NCc4ccccc4)cc32)c1,106,105

Reprinted at random: seven entries already listed.
Molecule,PV pol inh,PV pol inh intensity
CCCN(C(=O)CCNC(=O)Cn1cnc2ccccc2c1=O)c1cccc(C)c1,110,110
CCc1cccc(NC(=O)c2ccc(NC(=O)N3CCSc4ncccc43)cc2)c1,112,104
CCOC(=O)c1c(N)n(-c2ccccc2CC)c2nc3ccccc3nc12,109,112
COc1ccc(Nc2nc3ccccc3nc2NS(=O)(=O)c2ccc(Cl)cc2)cc1OC,108,112
COc1ccc(S(=O)(=O)NCCc2cn3ccsc3n2)cc1OC,107,107
CCOc1ccc(-c2nonc2NC(=O)c2ccco2)cc1OCC,103,105
COc1ccc(-c2nc(CNC(=O)Nc3ccccc3)c(C)o2)cc1,110,108

(next part)
Molecule,PV pol inh,PV pol inh intensity
CCOC(=O)c1ccc(NC(=O)CSc2nc3ccccc3c(=O)n2CCNC(C)=O)cc1,111,109
O=C(CSc1ncc2c(n1)-c1ccccc1N(Cc1ccc(F)cc1)S2(=O)=O)NCCc1ccccc1,108,108
CCN(CC)CCCNC(=O)c1ccc2nc(CCc3ccccc3)oc2c1,110,113
Cc1ccc(CCNC(=O)CCCn2nc(C)c3c(C)n(-c4ccc(C)cc4)nc3c2=O)cc1,101,105
CC(CNS(=O)(=O)c1ccc2c(c1)CC(=O)N2C)c1ccccc1 (centres undefined),111,110
Cc1ccc(NC(=O)C2CCCN(c3ncnc4onc(C)c34)C2)cc1Cl (centres undefined),111,104
COc1ccc(-c2cn3c(n2)sc2cc(C(=O)Nc4ccc(F)cc4)ccc23)cc1,109,104
COc1ccc(C(=O)Nc2ccc(S(=O)(=O)Nc3cc(C)nc(C)n3)cc2)cc1,109,111
COc1ccc(CNC(=O)c2ccc3c(c2)N(C)C(=O)C2CCCCN32)cc1OC (centres undefined),109,114
COc1ccc(N2C(=O)C(CC(=O)Nc3ccc(F)cc3)N(Cc3ccc4c(c3)OCO4)C2=O)cc1 (centres undefined),103,105
COc1ccc(N2CCN(C(=O)c3c(C)oc4nc(C)nc(N5CCCC5)c34)CC2)cc1,112,114
CC(=O)c1cccc(Nc2nc(-c3ccccc3Cl)nc3ccccc23)c1,105,107
CCc1ccccc1NC(=O)c1ccc2c(O)c(S(=O)(=O)c3ccccc3)c(=O)[nH]c2c1,102,100
CCn1c(=O)c2cc(C(=O)N(CCCOC(C)C)Cc3ccco3)sc2c2ccccc21,96,100
COc1ccc(Cn2ccc3nc(C)c(C(=O)N4CCN(c5ccccc5F)CC4)cc3c2=O)cc1,101,108
COc1ccccc1CCNS(=O)(=O)c1ccc(N2CCCCS2(=O)=O)cc1,106,108
CN(C)CCNc1oc(-c2ccc(COc3ccc(Cl)cc3)o2)nc1C#N,104,99
O=C1CC(c2ccccc2)Sc2ccccc2N1Cc1ccccc1F (centres undefined),108,109
O=C(CSc1cn(CC(=O)N2CCCC2)c2ccccc12)Nc1ccc(Cl)cc1,119,111
c1ccc(Nc2c(-c3ccccc3)nc3ncccn23)cc1,113,109
CCCCC(=O)Nc1ccc2nc(SCC(=O)N3CCc4ccccc43)sc2c1,102,100
COc1ccc(-c2cc(C(=O)Nc3ccc4c(c3)OCO4)no2)cc1,104,105
Cc1ccc(/C=C/c2onc(C)c2S(=O)(=O)N2CCC(C(=O)NCC(C)c3ccccc3)CC2)cc1 (centres undefined),104,100
COc1ccccc1N1CCN(C(=O)Cn2cnc3onc(-c4ccc(F)cc4)c3c2=O)CC1,102,99
Cc1ccc(CN2CCCn3nc(C(=O)NCCc4ccccc4C)cc3C2=O)cc1,103,106
Cc1c(C(=O)Nc2cccc(C#N)c2)sc2nc3n(c(=O)c12)CCCCC3,110,112
CCOc1ccc(CCNC(=O)c2ccc3c(c2)N(Cc2ccc(F)cc2)CCS3)cc1,106,105
O=C(CSc1n[nH]c(-c2ccccc2Cl)n1)N1CCN(c2ccc(F)cc2)CC1,98,103
CCN(CC)CCOC(=O)c1ccc(NC(=O)c2cc3c(=O)n(CC)c4ccccc4c3s2)cc1,96,95
CCCN(CCC)c1nc(-c2ccccc2F)nc2ccccc12,108,104
CC(=O)c1cc2c(cc1N/C(=N/S(=O)(=O)c1ccccc1)c1ccc(Cl)cc1)OCO2,113,116
CCn1nc(C)c(CCN(C)C(=O)Nc2cc(OC)c(OC)c(OC)c2)c1C,105,109
COc1ccccc1C(=O)Oc1ccc(C(c2c(C)[nH][nH]c2=O)c2c(C)[nH][nH]c2=O)cc1,109,113
Cc1nn(S(=O)(=O)c2ccc(Br)cc2)c(C)c1S(=O)(=O)N1CCCCCC1,100,102
Cc1cc2c(n1-c1ccc(C(=O)NCCc3ccccc3)cc1)CCC(C)C2 (centres undefined),104,105
CCCCN(Cc1ccccc1)S(=O)(=O)c1cc(Br)cc2c1N(C(C)=O)CC2,101,104
Cc1cccc(C)c1OCC(=O)Nc1c(C(=O)c2ccc(Br)cc2)oc2ccccc12,111,116
CCOc1ccccc1CNC(=O)CCC(=O)N1CCSc2ccccc21,103,97
COc1ccc(NC(=O)CC2C(=O)N(c3ccc(F)cc3)C(=O)N2CCc2sccc2C)cc1 (centres undefined),104,105
Cc1ccccc1NC(=O)Cn1c(=O)n(Cc2ccco2)c(=O)c2cccnc21,101,130
CC(=O)c1cccc(NC(=O)CCc2c(C)nc3nc(CN)nn3c2C)c1,105,103
CCOc1ccccc1-c1nc(-c2ccc(-c3ccccc3)nc2OCC)no1,103,107
CCCCNC(=O)c1cccc(-n2cnc3cccnc32)c1C,110,106
NC(=O)c1nc(-c2ccc(F)c(F)c2)nc2c1[nH]c(=O)n2-c1cccc(Cl)c1,105,106
CCSc1nnc2c(n1)OC(c1ccc(OC)c(OC)c1)N(C(C)=O)c1ccccc1-2 (centres undefined),106,111
CCCCN(CC)CCNC(=O)C1CCN(S(=O)(=O)c2cccc3nsnc23)CC1,106,108
Cc1cc(C)cc(NC(=O)C(=O)NCC(c2ccc3c(c2)OCO3)N2CCN(C)CC2)c1 (centres undefined),113,105
CCS(=O)(=O)c1ncc(Cl)c(C(=O)Nc2c(C(=O)c3ccc(C)cc3)oc3ccccc23)n1,114,113
Cc1cc(S(=O)(=O)Nc2cc3c(cc2Cl)n(C)c(=O)c(=O)n3C)ccc1F,105,105
Cc1cc(C)cc(NC(=O)C2CCCN2S(=O)(=O)c2ccc3c(c2)C(C)(C)C(=O)N3C)c1 (centres undefined),106,108
COc1ccc(CNC(=O)c2cnn(-c3ccccc3)c2-n2cccc2)cc1OC,113,105
Cc1ccc2c(CC(=O)Nc3ccccc3C(F)(F)F)coc2c1C,118,117
CCc1ccc(S(=O)(=O)NCCc2csc3nc(-c4ccccc4)nn23)s1,106,103
CNc1nc(Oc2ccc(=O)n(C)n2)nc(N2CCOCC2)n1,104,103
CC(C)c1ccc(OCC(=O)NCC(c2ccc(Cl)cc2)N2CCOCC2)cc1 (centres undefined),102,106
CCC(C(=O)Nc1ccc(C(=O)OC)cc1)n1nc(-c2ccc(C)cc2)c2c(c1=O)CCCC2 (centres undefined),115,106
CCOc1cccc(C2c3c(-c4cc(C)ccc4O)n[nH]c3C(=O)N2Cc2ccco2)c1 (centres undefined),107,105
Cc1ccc(-c2ccc(CCC(=O)O)n2-c2ccc(C(N)=O)cc2)cc1,106,108
Cc1cc(C)c2c(=O)cc(C(=O)Nc3ccc(S(=O)(=O)Nc4nc(C)cc(C)n4)cc3)oc2c1,108,95
Cc1ccc(Cl)cc1NC(=O)CN1C(=O)CSc2ccc(S(=O)(=O)N3CCCC3)cc21,112,116

Later entries.
Values run as follows: PV pol inh	PV pol inh intensity
> COc1ccccc1CCNC(=O)CCc1c(C)c2cc3c(C)coc3cc2oc1=O
 : 108	109
> CCOc1ccc(C(=O)Nc2ccc(-c3nc4cc(CC)ccc4o3)cc2)cc1
 : 104	112
> Cc1ccc(NC(=O)Cn2c(=O)n(CC(=O)NCCc3ccccc3)c(=O)c3ccccc32)cc1C
 : 105	108
> CN(C)S(=O)(=O)c1ccc2c(c1)N(CC(=O)N1CCC(C(N)=O)CC1)CCS2
 : 104	114
> COc1ccc(CNS(=O)(=O)c2cc3c(cc2C)n(C)c(=O)c(=O)n3C)cc1
 : 106	113
> Fc1ccc2ncc3c(-c4ccccc4)n[nH]c3c2c1
 : 110	113
> COc1ccc(-c2cc(C(F)(F)F)nc(NCc3ccccc3)n2)cc1OC
 : 105	104
> CCN1CCN(Cc2c(O)ccc3oc(C)c(C(=O)Nc4ccc(C)cc4C)c23)CC1
 : 106	99
> Cc1ccc(C)c(CN2C(=O)c3ccccc3S(=O)(=O)c3ccc(C(=O)NCCC4=CCCCC4)cc32)c1
 : 107	113
> Cn1nc(C(=O)Nc2ccc(F)c(Cl)c2)c2c1-c1ccccc1S(=O)(=O)C2
 : 99	92
> COc1ccc(CNc2oc(COc3cccc(C)c3)nc2C#N)cc1
 : 104	102
> COc1ccc(C(=O)Oc2ccc(C(c3c(C)[nH][nH]c3=O)c3c(C)[nH][nH]c3=O)cc2)cc1
 : 109	111
> O=C(COc1ccc(F)cc1)Nc1ccccc1C(=O)OCc1cc(=O)n2ccsc2n1
 : 105	107
> COc1cccc(C2=NN(S(C)(=O)=O)C(c3cn(-c4ccccc4)nc3-c3cccs3)C2)c1 (centres undefined)
 : 104	105
> CC(=O)N1c2nc(-c3ccco3)nn2C2(CCCCC2)[C@@H]2CCCC[C@@H]21
 : 106	109
> COCCNC(=O)CSc1c(C)cnc2c1c(=O)n(C)c(=O)n2C
 : 110	105
> CCC(C(=O)NCc1ccco1)n1nc(C)c2c(C)n(-c3ccc(C)cc3)nc2c1=O (centres undefined)
 : 103	106
> COc1ccc(-c2nc(S(=O)(=O)c3ccc(Cl)cc3)c(N3CCCCCC3)o2)cc1
 : 106	106
> CN(C)CCNC(=O)c1ccc(-n2c(-c3ccccc3)cc3c2CCCC3)cc1
 : 97	101
> CCCOc1ccc(CC2C(=O)Nc3ccc(Br)cc32)cc1 (centres undefined)
 : 105	99
> COc1ccc(NC(=O)c2ccco2)cc1NC(=O)COc1ccc(Cl)cc1C
 : 104	106
> COc1ccc(-c2ccnc3c(-c4ccc(F)cc4)c(C)nn23)cc1OC
 : 108	112
> CN(Cc1ccccc1)c1ncnc2onc(-c3ccc(F)cc3)c12
 : 103	105
> CCCNC(=O)CN1C(=O)CSc2ccc(S(=O)(=O)N3CCC(C)CC3)cc21
 : 106	105
> Cc1cccc(Oc2ccc(NC(=O)CCC(=O)OCC(=O)c3ccc(Br)cc3)cc2)c1C
 : 105	108
> CCOC(=O)c1cc(-c2ccc(OC)cc2)n(CCC(=O)NC2CCCCC2)c1C
 : 101	104
> Cn1c(CNC(=O)CSc2n[nH]c(-c3ccccc3Cl)n2)nc2ccccc21
 : 108	108
> Cc1c(Cl)cccc1NC(=O)Cn1c(=O)cc(C)c2c(C)nn(-c3cccc(F)c3)c21
 : 108	111
> COc1ccc(-c2nc3n(n2)C(c2ccccc2F)C(C(=O)Nc2cccnc2)=C(C)N3)cc1OC (centres undefined)
 : 106	106
> CCOC(=O)N1CCc2c(sc3c2c(=O)n(Cc2ccccc2)c(=O)n3Cc2ccc(C)cc2)C1
 : 101	105
> COc1ccccc1CNC(=O)CSc1nc(=O)[nH]c2c1CCC2
 : 106	101
> O=C(C1CC1)N1CCN(c2nc3ccc(F)cc3s2)CC1
 : 103	97
> CC(=O)c1cccc(NC(=O)CCc2c(C)nc3c(-c4ccc(F)cc4)c(C)nn3c2C)c1
 : 102	105
> COc1ccc(N2CC(NC(=O)c3ccc4c(c3)OCO4)CC2=O)cc1 (centres undefined)
 : 109	100
> Cc1cc(C)c(CSc2nnc(C)n3c2cc2occc23)c(C)c1
 : 109	105
> Cc1ccc2oc(-c3ccc(C)c(NC(=O)c4ccc(C(C)(C)C)cc4)c3)nc2c1
 : 109	109
> Cc1cc2[nH]c(=O)c(=O)[nH]c2cc1S(=O)(=O)Nc1ccc(OC(F)(F)F)cc1
 : 105	113
> COc1ccc(N2CCN(C(=O)c3nc(-c4ccc(Cl)cc4)n4c3CCCCC4)CC2)cc1
 : 113	116
> COc1ccc(NC(=O)CN(c2cc(C)cc(C)c2)S(=O)(=O)c2c(C)noc2C)cc1Cl
 : 105	110

High-throughput results (PubChem)
